# Compound activity (PubChem)
# MLL AF4-AF9 inh: inhibitors of human MLL-AF4/AF9 interaction; P42568; AlphaScreen, biotin-AF4 peptide binding to FLAG-AF9; inhibition, % at 10 µM; actives 0.47% (n = 350,000); AID 651704;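 active means every replicate reaching a set inhibition limit, whatever the replicate mean, cut at about 25% in these data; inconclusive means mean inhibition reaches that limit but some replicates miss it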;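 further: 0% = plate neutral control median and 100% = total signal loss; the record names both 10 and 1 µM as test concentration; the first replicate is given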
# Target sequence (P42568 whole entry, looked up): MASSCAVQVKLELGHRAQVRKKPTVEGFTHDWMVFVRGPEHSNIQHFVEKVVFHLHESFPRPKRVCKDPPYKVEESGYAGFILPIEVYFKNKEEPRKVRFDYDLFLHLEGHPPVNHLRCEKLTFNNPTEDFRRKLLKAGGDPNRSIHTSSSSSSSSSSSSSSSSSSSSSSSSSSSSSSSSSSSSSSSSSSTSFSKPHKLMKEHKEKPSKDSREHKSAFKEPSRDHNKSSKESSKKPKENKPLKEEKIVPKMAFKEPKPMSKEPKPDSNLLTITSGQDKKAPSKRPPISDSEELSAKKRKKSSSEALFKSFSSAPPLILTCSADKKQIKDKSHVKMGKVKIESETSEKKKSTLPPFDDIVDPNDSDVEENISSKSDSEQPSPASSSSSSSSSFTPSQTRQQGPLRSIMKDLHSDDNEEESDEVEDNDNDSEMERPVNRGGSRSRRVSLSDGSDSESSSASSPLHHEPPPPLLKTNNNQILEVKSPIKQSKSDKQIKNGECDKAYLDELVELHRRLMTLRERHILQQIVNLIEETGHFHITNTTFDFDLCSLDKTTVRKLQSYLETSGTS
# rRNA inh HTS: selective bacterial rRNA inhibition in E. coli; E. coli WT GFP vs humanized-ribosome RFP mutants, fluorescence, 24 h; active compounds read low; DMSO median 0, no signal -100; GFP signal change (wild-type ribosome), % (no concentration beside the values); actives 1.6% (n = 350,000);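 active means significant combined selectivity score with lowered wild-type GFP, culture density cut under 30%, mutant RFP and density less affected; inactive means any of these conditions unmet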; further: one replicate is shown; some compounds called inactive have numbers as strong as hits
# rRNA inh HTS OD600: further read-out of rRNA inh HTS, marked with its call; OD600 change, %; measured here: OD600 growth;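 optical density of the mix in the first replicate; 0 = DMSO median and -100 = no signal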
# rRNA inh HTS RFP: also measured in rRNA inh HTS; calls as there; RFP signal change, %; measured here: RFP humanized mutant strains;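 first replicate; 0 = DMSO median and -100 = no signal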
# Starred values were filed as active, the others as inactive; u = inconclusive; & = joins results of further samples; ! = a repeat was not active. Only part of the results is shown. The share of hits here may be higher or lower than overall.
SMILES,MLL AF4-AF9 inh,rRNA inh HTS,rRNA inh HTS OD600,rRNA inh HTS RFP
O=C(CCN1CCCCC1)NCC[C@@H]1CC[C@H](NC(=O)C2CCCC2)[C@H](CO)O1,0.6,1.6,6.7,-4.7
Cc1noc(C)c1S(=O)(=O)N(C)C[C@H]1OCCCC[C@@H](C)Oc2ccc(NC(=O)Nc3ccccc3)cc2C(=O)N([C@H](C)CO)C[C@@H]1C,2.0,2.8,2.6,0.0
CCCNC(=O)Nc1ccc2c(c1)C(=O)N(C)[C@@H]1CC[C@@H](CC(=O)NCCCN(C)C)O[C@H]1CO2,-4.5,-0.6,-2.3,8.2
CN1CCN(C(=O)C[C@H]2C[C@H]3c4cc(NC(=O)Cc5ccncc5)ccc4O[C@H]3[C@@H](CO)O2)CC1,-0.8,5.4,-2.0,0.5
O=C(Nc1ccc(Cl)cc1)N[C@H]1CC[C@H](CCn2cc(C3(O)CCCC3)nn2)O[C@@H]1CO,-9.3,-3.6,0.5,-0.1
CO[C@@H]1CN(C)C(=O)c2cc(NC(=O)NC3CCCCC3)ccc2OC[C@H](C)N(C)C[C@H]1C,-0.2,1.8,3.1,-0.3
C[C@@H]1CN([C@@H](C)CO)C(=O)c2cc(C#CCN(C)C)cnc2O[C@H]1CN(C)Cc1ccc(-c2ccccc2)cc1,33.9*!,2.7,2.2,7.0
C[C@@H]1CCCCO[C@H](CN(C)S(=O)(=O)c2cn(C)cn2)[C@H](C)CN([C@H](C)CO)C(=O)c2cc(NC(=O)CCCN(C)C)ccc2O1,-2.3,-0.8,0.8,-0.9
CC(C)NC(=O)N(C)C[C@H]1OCCCC[C@H](C)Oc2ccc(NS(C)(=O)=O)cc2C(=O)N([C@@H](C)CO)C[C@H]1C,-1.2,-0.9,-8.9,-3.4
C[C@@H]1CN([C@H](C)CO)C(=O)c2cccc(NS(C)(=O)=O)c2O[C@@H]1CN(C)C,-3.0,3.0,2.3,-0.9
CCN(CC)C(=O)c1cccc(-c2csc(C(NC(C)=O)c3ccccc3)n2)c1 (configuration not stated),0.1,-8.1,0.1,3.0
CNC(=O)C[C@H]1CC[C@H]2[C@H](COc3ccc(NC(=O)c4ccc(OC)cc4)cc3C(=O)N2C)O1,-0.2,2.2,2.3,1.1
C[C@H]1CN([C@@H](C)CO)S(=O)(=O)c2ccc(C#Cc3ccccc3F)cc2O[C@@H]1CN(C)C,16.1,0.2,-37.3,6.2
O=C(C[C@H]1C=C[C@@H](NS(=O)(=O)c2ccc(F)cc2)[C@@H](CO)O1)NCCc1ccncc1,-1.3,0.0,-2.5,1.1
C[C@@H]1CN([C@H](C)CO)C(=O)c2cc(-c3cccc(F)c3)cnc2O[C@H]1CN(C)S(=O)(=O)c1cccc(F)c1,2.7,-2.3,0.7,12.7
CCC(=O)N[C@H]1C=C[C@H](CC(=O)NCC2CCCCC2)O[C@H]1CO,1.0,0.8,3.6,-1.3
COc1ccc(CN(C)C[C@@H]2OCCCC[C@@H](C)Oc3ccc(NC(=O)NC(C)C)cc3C(=O)N([C@@H](C)CO)C[C@@H]2C)cc1,-3.9,2.3,13.6,-1.9
COc1cc(-c2cnc3c(NC=O)cc(-c4ccc(N5CCN(C)CC5)cc4)cn23)cc(OC)c1OC,17.6,8.0,7.5,-1.0
O=C(C[C@H]1CC[C@H]2[C@@H](COC[C@H](O)CN2S(=O)(=O)c2cccc(Cl)c2)O1)N1CCOCC1,-2.4,7.3,13.1,-4.5
CN(C)c1ccc(CC(=O)N2CCCCC2c2cc(C(=O)Nc3ccccc3)no2)cc1 (configuration not stated),u,-16.0,-23.0,-2.0
C/C=C/c1ccc(C2[C@H]3CNC[C@@H]2N3Cc2cccc(C(F)(F)F)c2)cc1 (some centres not stated),-6.2,-3.1,-43.5,-1.6
O=C(Nc1ccc2c(c1)[C@H]1C[C@H](CC(=O)N3CCc4ccccc4C3)O[C@@H](CO)[C@H]1O2)NC1CCCC1,0.5,-4.7,-0.1,2.1
C[C@H](CO)N1C[C@H](C)[C@H](CN(C)Cc2ccc(Oc3ccccc3)cc2)Oc2c(NS(=O)(=O)c3ccc(Cl)cc3)cccc2C1=O,0.2,1.5,-12.0,-0.4
C[C@@H]1CN([C@@H](C)CO)C(=O)c2cccc(NC(=O)Nc3ccc(C(F)(F)F)cc3)c2O[C@@H]1CN(C)Cc1ccc(C(=O)Nc2ccccc2N)cc1,-2.2,-5.9,-7.6,0.2
COc1ccc(S(=O)(=O)Nc2ccc3c(c2)C(=O)N([C@H](C)CO)C[C@@H](C)[C@@H](CN(C)S(=O)(=O)c2ccccc2)OCCCC[C@H](C)O3)cc1,-8.3,-3.3,1.7,-3.6
O=C(C[C@H]1CC[C@H](NC(=O)NC2CCCCC2)[C@@H](CO)O1)NCc1ccc(F)cc1,-2.4,2.0,7.1,0.8
CO[C@H]1CN(C)C(=O)c2cc(NC(=O)NC3CCCCC3)ccc2OC[C@@H](C)N(C)C[C@@H]1C,0.3,4.5,1.1,-1.2
COc1ccc(NC(=O)Nc2ccc3c(c2)C(=O)N([C@@H](C)CO)C[C@H](C)[C@@H](CN(C)C)OCCCC[C@@H](C)O3)cc1,-5.7,0.2,-4.6,-2.3
C[C@H](NC(=O)C[C@H]1C=C[C@@H](NC(=O)CN2CCOCC2)[C@H](CO)O1)c1ccccc1,-1.2,1.1,6.7,-0.7
COc1ccc(Cl)cc1NC(=O)c1cccc(S(=O)(=O)Nc2c(C)n(C)n(-c3ccccc3)c2=O)c1,-1.4,0.4,-8.1,0.3
Cc1cc2nc(-c3ccco3)c(Cc3cccc(F)c3)n2c(C)c1Br,-2.3,10.7,17.8,9.1
CCOC(=O)C1=CC[C@@H](c2ccc([N+](=O)[O-])cc2)N(S(=O)(=O)c2ccc(C)cc2)[C@H]1c1ccccc1,-0.9,7.4,11.7,0.9
Cc1cccc(C)c1N1C(=O)c2ccccc2NC(=O)C1C(=O)Nc1ccc(N2CCOCC2)cc1 (configuration not stated),-0.7,2.9,0.4,-3.7
O=C(NC1CCCC1)C(c1ccc(F)cc1)N1CCC(O)(c2ccc(Cl)cc2)CC1 (configuration not stated),3.3,-46.5,-78.5,-18.1
COc1ccc(NC(=O)N(C)C[C@@H]2OCCCC[C@@H](C)Oc3ccc(NC(=O)NC4CCCCC4)cc3C(=O)N([C@H](C)CO)C[C@@H]2C)cc1,-2.1&0.4,2.4&15.1,2.0&9.8,-3.2&-2.0
CO[C@@H]1CN(C)C(=O)c2cc(NC(=O)c3nc4ccccc4s3)ccc2OC[C@H](C)N(Cc2cncnc2)C[C@H]1C,-0.3,-6.9,-5.8,3.3
CN1c2ccc(-c3ccccc3)cc2[C@@H]2[C@@H](CCN2C(=O)c2ccccn2)[C@H]1CO,0.9,-5.2,0.0,2.5
O=C(NCc1cc(F)cc(F)c1)[C@@H]1[C@@H](CO)[C@@H]2Cn3c(cccc3=O)[C@H]1N2C(=O)c1cnccn1,0.8,3.4,7.7,-0.5
CN1C(=O)c2cc(NC(=O)c3ccc(F)c(F)c3)ccc2OC[C@H]2O[C@H](CC(=O)N[C@H]3CCN(Cc4ccccc4)C3)CC[C@H]21,6.8,-1.4,-5.3,-0.2
C[C@H]1CN([C@@H](C)CO)C(=O)Cc2cc(NC(=O)C3CC3)ccc2O[C@H]1CN(C)C(=O)Nc1cccc2ccccc12,-0.7,0.1,-3.3,2.5
CCN(CC)c1ncnc2c1ncn2[C@H]1CN(Cc2ccncc2)C[C@@H](CO)O1,-0.6,10.9,24.9,-0.1
C[C@H](CO)N1C[C@H](C)[C@@H](CN(C)Cc2ccc3c(c2)OCO3)Oc2ncc(C#CCN(C)C)cc2C1=O,5.3,2.5,0.1,-3.3
CO[C@@H]1CN(C)C(=O)c2cc(NS(=O)(=O)c3cccc(C)c3)ccc2OC[C@H](C)NC[C@H]1C,-3.4,1.9,0.1,0.2
COc1ccc(NC(=O)N2CCCCN3[C@H](CO)[C@H](c4ccc(-c5ccccc5C)cc4)[C@@H]3C2)cc1,0.2,-0.4,-19.1,13.1
COc1ccccc1NC(=O)N1C[C@@H]2[C@H](c3ccccc31)[C@H](CO)N2C(C)=O,-1.0,-10.7,5.0,3.7
O=C(c1ccncc1)N1CC(=O)N2[C@H](CO)[C@@H](c3ccc(-c4cccnc4)cc3)[C@@H]2C1,-3.2,3.5,14.4,-0.9
CNC[C@@H]1Oc2cc(C#C[C@@H](C)O)ccc2S(=O)(=O)N([C@@H](C)CO)C[C@H]1C,-0.5,5.5,10.5,-2.5
O=C1NC[C@H](CCCCN2C[C@H](Cc3ccccc3)N(CCC3CCCCC3)C(=O)C2=O)N(CCc2ccccc2)C1=O,-0.7,-0.1,3.4,2.5
C[C@H]1CN([C@@H](C)CO)C(=O)c2ccccc2-c2ccccc2CO[C@@H]1CN(C)S(=O)(=O)c1ccc(F)cc1,-3.7,6.4,13.8,-4.5
COc1ccccc1NC(=O)N(C)C[C@@H]1Oc2ncc(C#CCN(C)C)cc2C(=O)N([C@H](C)CO)C[C@@H]1C,-11.7,3.3,8.2,-1.5

# Further structures
SMILES,MLL AF4-AF9 inh,rRNA inh HTS,rRNA inh HTS OD600,rRNA inh HTS RFP
C[C@@H]1CN([C@@H](C)CO)C(=O)c2cc(NS(=O)(=O)c3cccs3)ccc2O[C@@H](C)CCCCO[C@@H]1CN(C)Cc1ccc(C(=O)O)cc1,-4.1,0.0,2.1,-1.1
CO[C@H]1CN(C)C(=O)c2ccc(NC(=O)NC(C)C)cc2OC[C@@H](C)N(C(=O)CC2CC2)C[C@H]1C,-1.4,-0.1,-1.9,-0.6
C[C@@H]1CN([C@H](C)CO)C(=O)Cc2cc(NS(C)(=O)=O)ccc2O[C@H]1CN(C)Cc1ccc(C(F)(F)F)cc1,3.6,-4.0,-5.3,-0.4
CC(C)NC(=O)N(C)C[C@@H]1Oc2ccc(NC(=O)CCN3CCOCC3)cc2CC(=O)N([C@H](C)CO)C[C@@H]1C,-1.4,4.0,-2.6,-1.7
Cc1ccc(S(=O)(=O)N2[C@@H](c3ccc(Br)cc3)C(C(=O)O)=CC[C@H]2c2ccc3c(c2)OCO3)cc1,2.0,-2.8,-21.1,-5.2
C[C@@H]1CN([C@H](C)CO)C(=O)c2cccc(NC(=O)c3cnccn3)c2O[C@H]1CN(C)Cc1ccc2c(c1)OCO2,-1.3,-2.3,0.3,-1.2
C[C@@H]1CN([C@H](C)CO)C(=O)Cc2cc(NC(=O)NC3CCCCC3)ccc2O[C@@H]1CN(C)Cc1ccc(Cl)c(Cl)c1,-0.2,-0.7,-4.6,0.0
C[C@H]1CN([C@@H](C)CO)C(=O)c2cc(C#Cc3ccccn3)cnc2O[C@H]1CN(C)Cc1ccncc1,-10.4,7.1,0.7,2.0
COc1ccc(-c2ccc([C@@H]3[C@@H](CO)N4C(=O)CNC[C@@H]34)cc2)cc1,-3.1,0.9,2.5,4.1
C[C@@H]1CN([C@H](C)CO)C(=O)c2cccc(NC(=O)c3ccc(-c4nccs4)cc3)c2O[C@H]1CN(C)S(C)(=O)=O,-1.3,-0.2,-2.2,-0.3
C[C@H]1CN([C@@H](C)CO)C(=O)c2cccc(NC(=O)C3CC3)c2O[C@@H]1CN(C)Cc1ccc(C(=O)O)cc1,5.1,2.9,11.6,-0.8
COc1cc(C(=O)C(=O)N2CCN(c3ccccc3)CC2)cc2ccccc12,-1.1,-12.9,-13.2,21.4
CCc1ccc(OC2(C)CCN(CCOc3ccc(C)cc3)C2)cc1 (configuration not stated),0.0,-64.3,-71.0,-25.1
COc1ccc(NC(=O)N(C)C[C@H]2Oc3ccc(NC(=O)C4CCCCC4)cc3CC(=O)N([C@@H](C)CO)C[C@@H]2C)cc1,-1.5,2.3,10.4,1.0
O=C(Nc1ccccc1F)N[C@H]1CC[C@@H](CCNC(=O)C2CCOCC2)O[C@@H]1CO,-1.5,-1.9,1.5,-1.7
CC(=O)N1[C@H](C(=O)NCC2CC2)[C@@H](CO)[C@@H]2Cn3c(ccc(-c4cccc(F)c4)c3=O)[C@@H]21,-2.1,2.1,2.4,-3.1
COc1ccc(NC(=O)N(C)C[C@@H]2Oc3ccc(NC(=O)Cc4ccccc4)cc3C(=O)N([C@H](C)CO)C[C@@H]2C)cc1,-5.2,-1.3,1.0,0.2
CC(=O)NC[C@H]1[C@H](c2ccc(-c3ccccc3F)cc2)[C@H](CO)N1C(C)=O,3.0,-1.2,6.5,-2.7
C[C@H](CO)N1C[C@H](C)[C@@H](CN(C)C(=O)C2CCCCC2)OCCCC[C@H](C)Oc2ccc(NC(=O)Nc3ccccc3)cc2C1=O,-0.6,1.8,-0.6,-2.6

# Ordered by formula weight (ascending): part of the list above.
SMILES,MLL AF4-AF9 inh,rRNA inh HTS,rRNA inh HTS OD600,rRNA inh HTS RFP
CCN(CC)C(=O)c1cccc(-c2csc(C(NC(C)=O)c3ccccc3)n2)c1 (configuration not stated),0.1,-8.1,0.1,3.0
CCOC(=O)C1=CC[C@@H](c2ccc([N+](=O)[O-])cc2)N(S(=O)(=O)c2ccc(C)cc2)[C@H]1c1ccccc1,-0.9,7.4,11.7,0.9
C[C@@H]1CN([C@H](C)CO)C(=O)c2cccc(NC(=O)c3cnccn3)c2O[C@H]1CN(C)Cc1ccc2c(c1)OCO2,-1.3,-2.3,0.3,-1.2
C[C@@H]1CN([C@H](C)CO)C(=O)Cc2cc(NS(C)(=O)=O)ccc2O[C@H]1CN(C)Cc1ccc(C(F)(F)F)cc1,3.6,-4.0,-5.3,-0.4
C[C@@H]1CCCCO[C@H](CN(C)S(=O)(=O)c2cn(C)cn2)[C@H](C)CN([C@H](C)CO)C(=O)c2cc(NC(=O)CCCN(C)C)ccc2O1,-2.3,-0.8,0.8,-0.9
